From PubChem
Rango release inh – prevents RanGTP from dissociating the Rango-importin beta complex; Biochemical FRET Rango-importin beta, RanGTP-induced dissociation; Potency, µM (highest dose often 46.1 µM), for inactives: at the top dose activity change, negative = inhibition; actives 0.071% (n = 340,000); active means falling FRET ratio curve, often poorly fitted, with flat reads before Ran was added; inconclusive means other falling curves, or compound fluorescence or quenching; inactive means flat or rising ratio curve;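 note: potency is the fitted concentration of half-maximal effect; % of control where 0% means no effect; nearly all actives have a fitted effect of over 45% in size; -100% = wells without RanGTP and RCC1; the record marks most hits as doubtful in a second field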
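Compounds preincubate 5 min with complex of recombinant Rango and importin beta in PBS with 1 mM DTT. Ran (0.6 uM) loaded with 2 mM GTP plus 0.2 uM RCC1 starts dissociation; FRET is recorded 45 min later.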
miR-21 reporter – miR-21 reporter, rising signal. HeLa miR-21 FLuc reporter, luciferase, 48 h. 340,000 tested, under 10 active. AID 2288. Potency, µM (series often up to 38.3 µM), for inactives: at the highest dose reporter change, positive = more light; active = well fitted rising curve with a large enough effect; inconclusive = small, poorly fitted or top-dose-only effect; inactive = no such curve, though single readings can be large or run the other way;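 note: % of control where 0% means no effect; miR-21 action dims this reporter so a rising signal means less miR-21 action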
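HeLa cells stably expressing CMV-driven firefly luciferase with a downstream miR-21 binding sequence, endogenously expressing miR-21, were treated with titrations (up to about 40uM final) for 48 hours at 37 degree Celsius. Luciferase luminescence was read after lysis.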
Rango complex inh – inhibitors of Rango-importin beta complex formation | Q14974 | actives 0.031% (n = 340,000) | Rango CFP/YFP FRET sensor + importin beta, 45 min | Potency, µM (doses to about 92.2 µM), for inactives: top-dose inhibition of complex formation | AID 540263; active = rising FRET ratio curve, often small or poorly fitted; inconclusive = mostly compound fluorescence or quenching in the first reads; inactive = flat curves in all reads;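 note: potency is the fitted concentration of half-maximal effect; 0% = DMSO wells and 100% = buffer wells lacking importin beta; nearly all actives have a fitted effect of over 15% in size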
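Inhibition scored from the CFP 486 nm/YFP 530 nm FRET ratio 45 min after adding 0.125 microM importin beta to 50 nM Rango biosensor preincubated 5 min with compound (room temperature, PBS with DTT, Tween-20, BSA). No-importin wells as positive control.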
GLA inh pH 4.5 – alpha-galactosidase A (human) inhibition, pH 4.5 | P06280 | purified enzyme, 4-MU-alpha-Gal fluorescence, pH 4.5 | activity change, negative = inhibition, % at 105 µM | 230,000 tested, under 10 active | AID 1467; inconclusive = small, poorly fitted or top-dose-only inhibition, or a rising curve; inactive = flat fitted curve, though single readings scatter; no compound was filed as active;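 note: 0% = full activity with enzyme and -100% = basal without enzyme; dose as in the result columns while the protocol names 77 µM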
Target sequence (P06280 whole entry, looked up): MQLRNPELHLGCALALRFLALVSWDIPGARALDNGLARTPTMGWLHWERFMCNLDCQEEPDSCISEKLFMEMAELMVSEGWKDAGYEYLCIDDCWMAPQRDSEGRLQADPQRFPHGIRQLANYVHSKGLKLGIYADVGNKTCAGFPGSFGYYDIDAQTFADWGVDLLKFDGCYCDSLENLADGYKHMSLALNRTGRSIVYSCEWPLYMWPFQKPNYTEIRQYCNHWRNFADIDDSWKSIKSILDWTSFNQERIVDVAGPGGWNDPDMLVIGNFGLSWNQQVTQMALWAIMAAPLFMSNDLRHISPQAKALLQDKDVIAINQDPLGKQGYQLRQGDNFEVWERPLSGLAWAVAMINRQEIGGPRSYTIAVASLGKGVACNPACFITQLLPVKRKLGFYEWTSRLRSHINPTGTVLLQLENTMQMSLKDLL
An asterisk follows results filed as active; ? = inconclusive; . = no result given; & = joins results of further samples; [ ] = another dose, or the depositor's remark. This is a subset; rates above refer to the full screens.

SMILES	Rango release inh	miR-21 reporter	Rango complex inh	GLA inh pH 4.5
CCOC(=O)C1CCN(C(=O)C2CCCN(S(=O)(=O)c3ccc(OC)c(Cl)c3)C2)CC1 (stereo not given)	12%	5%	4.0%	.
COc1ccc(N2CCN(S(=O)(=O)CCNS(=O)(=O)c3ccccc3)CC2)cc1	8%	.	0.7%	.
c1ccc(-c2n[nH]c3ccccc23)cc1	1%	-16%	4.4%	-3
c1cnc(N2CCN(Cc3ccc4c(c3)OCO4)CC2)nc1	25%&1%	-9%&-13%	?	-16&-6&-1&6
CCOc1nc2ccccc2cc1C=O	17%	11%	4.7%	-13
COc1ccc(/C=N/N=C(\N)c2nonc2N)cc1OC	-16%	-71%	?	-6
S=C(NCc1ccco1)N/N=C/c1ccncc1	-6%	-1%	0.0%	-4
O=C(Nc1ccccc1)Nc1cccc2ccccc12	-10%	-24%	0.3%	-1
Cc1nn(-c2ccccc2)c(Cl)c1/C=N/NC(=O)c1ccccc1F	-1%	-64%	-0.1%	-4
CCOc1ccc(NC(=O)Cc2ccc(S(=O)(=O)N3CCCCC3)cc2)cc1OCC	32%	.	-1.0%	.
O=C(COc1ccccc1)OC(C(=O)c1ccccc1)c1ccccc1 (stereo not given)	9%	-4%	-2.6%	-8
Cc1cc(NC(=O)CN2C(=O)CCSc3ccccc32)no1	5%	1%	-2.1%	5
O=C(O)CSCC(=O)Nc1ccc(C(F)(F)F)cc1	12%	0%	-7.2%	-5
CN(C)C(=O)N1CCCC(C(=O)NCc2ccc(F)cc2Cl)C1 (stereo not given)	-4%	0%	-1.2%	-4
Cc1cc2c(cc1S(=O)(=O)N1CCCCC1)OCC(=O)N2	-9%	-3%&-30%	2.4%	.
O=C(Nc1cccc(C(F)(F)F)c1)n1cc(-c2ccccn2)c(N2CCOCC2)n1	7%	19%	0.4%	1
CCOc1ccccc1N(C)S(=O)(=O)c1ccc2c(c1)N(C(C)=O)CCO2	7%	8%	0.2%	.
O=C(Cn1cnc2ccccc2c1=O)NC1CCCc2ccccc21 (stereo not given)	0%	1%	-0.9%	4
COC(=O)c1ccc2[nH]c(C3(O)CCCCC3)c(C)c2c1	-8%	.	-1.6%	.
CC1=CN2C(=NC(=O)CC2(C)C(=O)N(CC(=O)NC2CCCC2)Cc2ccccc2)C=C1 (stereo not given)	4%	-1%	-0.1%	.
O=C(CCc1ccccc1)Nc1ccccc1C(=O)N1CCOCC1	0%	2%	-5.9%	-1
CCNc1nc(NC(C)C)nc(Nn2cnnc2)n1	-19%	-7%	-1.9%	-4
CC(C)CC(=O)Nc1ccc(Nc2ccccc2)cc1	-3%	-31%	2.2%	6
NC(=S)NC1CCS(=O)(=O)C1 (stereo not given)	-2%	0%	0.1%	1[21.1 µM]
Cc1c(-c2ccncc2)oc2ccc(Br)cc2c1=O	.	-7%	.	11
SMILES	Rango release inh	miR-21 reporter	Rango complex inh	GLA inh pH 4.5
COc1cc2c(cc1OC)-c1c(OC)c(OC)cc3ccnc(c13)C2=O	-1%	-32%	1.0%	-1&-6
O=C(NC(=S)N1CCN(c2ccccn2)CC1)c1ccccc1	-15%	-6%	0.0%	8
CCCc1cc(=O)[nH]c(SCC(=O)N2CCN(c3ccccc3)CC2)n1	-18%	-7%&0%	-1.5%	2
COc1ccc(NC(=O)CC2Oc3ccccc3NC2=O)c(OC)c1 (stereo not given)	-21%	1%	-0.1%	.
Cc1ccc(S(=O)(=O)NCCc2ccc(S(N)(=O)=O)cc2)cc1	2%	0%	-1.2%	-13
Cc1ccc(NC(=O)C(=O)NCC2CCN(C(=O)c3cccc([N+](=O)[O-])c3)CC2)cc1	22%	0%	1.1%	0
CCN1CCN(S(=O)(=O)Cc2ccccc2)CC1	-4%	-7%	-1.0%	2
CCC(C)NC(=O)CNC(=O)c1nn(-c2ccc(OC)cc2OC)c(=O)c2ccccc12 (stereo not given)	-2%	2%	-2.1%	.
CCOC(=O)C1CCN(C(=O)CCNS(=O)(=O)c2ccc3c(c2)CCN3C(=O)CC)CC1	-13%	-1%	-0.2%	.
CCOC(=O)c1nn(-c2ccccc2C)c(=O)cc1OCC(=O)Nc1cccc(OC)c1	6%	.	-0.5%	.
COc1ccc(-c2ccc3oc(-c4ccc(OC)cc4)c(-c4ccc(OC)cc4)c3c2)cc1	-13%	.	-2.0%	.
COCCN1Cc2cccc(C(=O)NC(C)c3cccs3)c2C1=O (stereo not given)	0%	6%	0.2%	2
CC(OC(=O)c1cc(S(=O)(=O)N2CCOCC2)ccc1F)C(=O)NCC1CCCCC1 (stereo not given)	5%	.	-1.5%	.
Cn1ccnc1SCC(=O)Nc1ccccc1	-3%	-16%	0.4%	2
Cc1ccc(C(=O)c2ncc[nH]2)cc1	-14%	.	2.2%	.
O=C(NCc1ccco1)c1ccc(COc2ccc(Cl)cc2)cc1	-4%	-16%	0.2%	6
O=C(C1=C(O)C(=O)N(CCN2CCOCC2)C1c1ccc([N+](=O)[O-])cc1)c1cc2ccccc2o1 (stereo not given)	23%	-6%	1.0%	.
COCCn1c(-c2ccco2)csc1=Nc1cccnc1	0%	-2%	-0.4%	-4
O=C(CC1SC(=O)N(c2ccccc2)C1=O)Nc1cccc2ccccc12 (stereo not given)	6%	-13%	1.0%	0
Cc1ccc([N+](=O)[O-])cc1NC(=O)CCSc1ccc(Cl)cc1	-13%	5%	1.7%	1
Cc1ccc(C)c(CN2CCSCC2)c1	0%	-4%	-3.6%	.
CNC(=O)/C(C#N)=C1\SC(Cc2ccc(F)cc2)C(=O)N1c1ccccc1C (stereo not given)	-22%	2%	-1.1%	-11
O=C(NCCCc1ccccc1)C1CCN(c2nnc(-n3cccc3)s2)CC1	17%	-11%	-2.5%	4
Cc1cc(C)cc(NC(=O)c2ccc(CNc3c(N4CCOCC4)c(=O)c3=O)cc2)c1	-7%	-6%	?	4
CCOC(=O)c1cc(-c2ccccc2C)nn1Cc1cc(CC)no1	9%	.	0.2%	.

Ordered by count of non-hydrogen atoms (smallest number first): 5 of the compounds above.
SMILES	Rango release inh	miR-21 reporter	Rango complex inh	GLA inh pH 4.5
Cn1ccnc1SCC(=O)Nc1ccccc1	-3%	-16%	0.4%	2
CCN1CCN(S(=O)(=O)Cc2ccccc2)CC1	-4%	-7%	-1.0%	2
COCCn1c(-c2ccco2)csc1=Nc1cccnc1	0%	-2%	-0.4%	-4
Cc1ccc(S(=O)(=O)NCCc2ccc(S(N)(=O)=O)cc2)cc1	2%	0%	-1.2%	-13
CCOC(=O)c1cc(-c2ccccc2C)nn1Cc1cc(CC)no1	9%	.	0.2%	.

(cont.)
SMILES	Rango release inh	miR-21 reporter	Rango complex inh	GLA inh pH 4.5
CCNC(=O)NC1(C(=O)Nc2ccc3c(c2)CCC3)CCCCC1	9%	-3%	7.6%	-13
Cc1cc(C)c(C#N)c(SCc2cc3c(cc2Cl)OCO3)n1	15%	-1%	-5.3%	-3
CCN(CC)c1ccc(NC(=O)CSc2ccsc2[N+](=O)[O-])c(C)c1	-17%	-1%	3.4%	-8
CC(C)c1nc(CN2CCCCC2)cc(=O)[nH]1	-7%	-1%	-0.1%	-6
O=c1c2c3c(sc2nc2n1N=C(c1cccs1)CS2)CCCC3	-9%	-51%	-0.1%	4
NC(=O)c1nnsc1-c1ccco1	1%	.	2.7%	.
COc1cccc(CC(=O)OCC(=O)NNC(=O)c2ccc(Br)cc2)c1	19%	.	-0.7%	.
CCC1(CCC(C)C)SC(N)=NC1=O (stereo not given)	7%	.	-1.1%	.
Oc1ccccc1/C=N/N1CCCCC1	4%	0%	-0.3%	5
COC(=O)N/N=C/C1=CCC2CC1C2(C)C (stereo not given)	-7%	2%	-3.0%	-6
CCCOP(=O)(c1ccc(N(C)C)cc1)C(Nc1ccccc1)c1ccc(C)cc1 (stereo not given)	12%	22%	1.2%	-29
COc1ccc(N/N=C2/CCCCC2=O)cc1	-10%	-13%	1.8%	5
Cc1c(NC(=O)COc2ncnc3c(Cl)cc(Cl)cc23)c(=O)n(-c2ccccc2)n1C	-1%	-3%	0.7%	-15
COc1cc2c(cc1OC)CN(C1CC(=O)N(c3c(C)cccc3C)C1=O)CC2 (stereo not given)	-1%	-11%	-1.1%	7
Cc1c(C)n(CC(O)CN2CCN(C)CC2)c2ccccc12 (stereo not given)	12%	0%	-0.5%	.
O=C(NNC(=S)Nc1ccc(Br)cc1)c1ccccc1	2%	-56%	-0.2%	.
CC1=C(C(=O)OCc2ccccc2)C(c2ccccn2)c2c(n(C)c(=O)n(C)c2=O)N1 (stereo not given)	-14%&-5%	0%	-0.6%&-0.1%	-2
CCOC(=O)/C(C#N)=C/Nc1ccccc1OC(F)(F)F	-10%	-5%	2.6%	1
Cn1cnnc1SCC(=O)Nc1sccc1C#N	-9%	-5%	0.0%	2
COc1ccc(CSc2nc3ccccc3c(=O)n2CCCN2CCOCC2)cc1F	8%	-5%	-2.8%	-9
CC(=O)c1ccc(N2CCC(c3cc(-c4ccc(Cl)cc4Cl)n[nH]3)CC2)c([N+](=O)[O-])c1	0%	11%	-3.4%	-4
CCOP(=O)(OCC)/C(C#N)=C/c1ccc([N+](=O)[O-])cc1	-1%	0%	-2.8%	-10
CCc1nnc(NC(=O)CCC(=O)N2CCN(CCOc3ccc(C)cc3)CC2)s1	12%	16%	5.3%	2
COC(=O)C1=C2SCC(=O)N2C(N)=C(C#N)C1	0%	6%	2.1%	9
CC(=O)c1c(C)[nH]c(C(=O)Nc2nc(-c3ccc(-c4ccccc4)cc3)cs2)c1C	5%	-7%	-0.5%	-4

Exported with the structure last: entries from further up.
| Rango release inh | miR-21 reporter | Rango complex inh | GLA inh pH 4.5 | SMILES |
| --- | --- | --- | --- | --- |
| 8% | . | 0.7% | . | COc1ccc(N2CCN(S(=O)(=O)CCNS(=O)(=O)c3ccccc3)CC2)cc1 |
| 1% | -16% | 4.4% | -3 | c1ccc(-c2n[nH]c3ccccc23)cc1 |

(listing goes on)
SMILES	Rango release inh	miR-21 reporter	Rango complex inh	GLA inh pH 4.5
O=C(CCCCn1c(=O)[nH]c2ccccc2c1=O)N1CCN(c2ncccn2)CC1	21%	-8%	5.9%	-1
COc1ccccc1OCCNC(=O)C1CC(=O)N(c2cccc(SC)c2)C1 (stereo not given)	-9%	.	-1.6%	.
CCOc1ccc(NC(=O)C2CCN(S(=O)(=O)c3ccc4c(c3)N(C(C)=O)CCO4)CC2)cc1	-10%	9%	-3.2%	.
O=C1CN(C(=O)CNCc2ccccc2)c2ccccc2N1	-21%	-2%	1.5%	6
COC(=O)c1cc(C(=O)c2cccc(Cl)c2Cl)cn1C	19%	-7%	-1.3%	-22
COC(=O)CN(c1cc(Cl)ccc1OC)S(=O)(=O)c1ccc(OC)c(OC)c1	0%	-4%	-1.5%	-16
CCn1nc(C)c(/C=N\NC(=O)c2cccc(OC)c2)c1C	-18%	-34%	-2.2%	-11
O=C(CC(Nc1ccc(Cl)cc1Cl)C(=O)O)c1ccccc1 (stereo not given)	14%	-25%	0.1%	2
Cc1sc(NC(=O)Cc2ccc3c(c2)OCO3)nc1-c1ccc2c(c1)CCN2C(=O)c1cccc(F)c1	5%	9%	0.4%	1
Cc1nc2sc(-c3ccccc3)cc2c(=O)n1-n1cccc1	3%	-58%	-5.7%	1
CCOC(=O)c1ccccc1NC(=O)CN(c1ccccc1)S(=O)(=O)N(C)C	12%	-8%	2.7%	-14
CC(C)(C)c1ccc(NC(=O)CC2(C(F)(F)F)OCCO2)cc1	16%	-49%	4.7%	0
CCc1ccc(S(=O)(=O)NCCc2cn3ccc(C)cc3n2)s1	-16%	0%	-3.6%	-7
C=CCn1c(=O)c2ccccc2n2c(SCc3c(C(=O)OCC)oc4ccccc34)nnc12	2%	-7%	-4.6%	21
CCn1c(=O)c(=O)n(CC)c2cc(S(=O)(=O)Nc3ccc(C)cc3)ccc21	-4%	0%&-4%	3.8%	0
Cn1c(=O)c2c(nc(Br)n2CC(=O)c2cccs2)n(C)c1=O	-14%	-2%	-0.1%	-7
CCOc1cc(C(=S)N2CCCCC2)ccc1OS(=O)(=O)c1ccc(Br)cc1	7%	5%	1.3%	3
COc1cccc(NC(=O)CN(C)C(=O)c2ccccc2OCC(=O)Nc2cccc(C(F)(F)F)c2)c1	-3%	.	0.0%	.
Cc1cc(C)n(CC(=O)N/N=C/c2ccccn2)n1	1%	7%	1.4%	-1
